BJeLR lethal = MLPCN primary cell-based screen for lethality selective to Ras in HRASV12 cells; 300,000 tested, 0.17% active; BJeLR (HRASV12) viability, CellTiter-Glo ATP luminescence, 48 h; reference of the scale not given here; AID 1554, 2009; inhibition, % (no concentration beside the values);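 active = replicate mean above 50%; inconclusive = above 50% but judged a plate artefact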;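 also: 50 nL library stock added to about 25 µL; numbers are from one replicate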
Sa ugtP lethal = growth inhibition of ugtP-null S. aureus, primary screen, RN4220 ugtP deletion, OD600. 330,000 tested, 0.54% active. 16 h; some inactives read as strong as hits. growth inhibition, % (concentration not given with the values);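 active = z-score under -3 and OD600 up to 0.15 on both plates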;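 also: plate controls were untreated wells for no effect and antibiotic for full effect; wells of about 80 µL received 100 nL stock; the first replicate is given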
Bead autofluor = flagged as autofluorescent in microsphere protease counterscreen; compound autofluorescence counterscreen, microsphere flow cytometry; active compounds read high; fluorescence intensity (no concentration beside the values); 360,000 tested, 3.1% active; AID 624483;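 active = at least 3 SD above the mean of all compounds, about 16000 in these data; inconclusive = too few beads counted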;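 also: 100 nL of 1 mM stock went into each well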
Mtb hypoxia inh = PubChem AID 1159583. M. tuberculosis hypoxia-regulated fluorescent reporter, fluorescence. fluorescence inhibition, % (concentration not given with the values). 300,000 tested, 0.1% active;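 active = 35 to 45% if threefold the growth effect, above 45% if 1.5-fold the growth effect; inactive = the rest, general growth blockers included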;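 also: wells of about 50 µL received 100 nL stock; 0% = vehicle wells and 100% = reference inhibitor wells; whole bacteria with a GFP reporter of the hypoxia response; strong numbers were not always called active; many hits fall short of the cut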
Sa RN4220 lethal = growth inhibition of S. aureus RN4220, primary screen, OD600; 16 h; inhibition, % (no concentration beside the values); 330,000 tested, 0.33% active;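 active = z-score of -3 or lower and OD600 up to 0.18 on both plates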;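 also: plate controls were untreated cells for no effect and reference antibiotic for full effect; stock transfer was 100 nL into about 80 µL; one replicate is shown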
PrP 5UTR inh = inhibition of PrP 5' UTR reporter expression | inhibition, % (test concentration not listed) | cell-based PrP 5' UTR mRNA reporter, plate reader | 340,000 tested, 0.35% active;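 active = every replicate at 50% or more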;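 also: 0 = median of the neutral control wells; tested in H4 reporter cells; numbers are from one replicate; inactives centre near -14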
Mtb hypoxia inh growth = recorded beside Mtb hypoxia inh, whose call it bears; growth inhibition, %; measured here: M. tuberculosis growth (absorbance);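 0% = vehicle and 100% = reference antibiotic; read after six days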
Numbers without * were called inactive; ? = inconclusive; / = no result given; & = joins results of further samples. This is a random part of the collection (roughly 4% active in at least one column).

Structure | BJeLR lethal | Sa ugtP lethal | Bead autofluor | Mtb hypoxia inh | Mtb hypoxia inh growth | Sa RN4220 lethal | PrP 5UTR inh
Cc1ccc(C)c(OCCC(=O)Nc2cc(S(=O)(=O)N3CCCCC3)ccc2C)c1 | / | -5.4 | 3787 | 19.8 | 8.4 | 3.6 | -20.7
CC#CCCCC(=O)Nc1cc(OC)nc(OC)n1 | 4.5 | -2.1 | 22745* | 9.2 | 8.6 | 7.0 | -22.7
Cc1ccccc1S(=O)(=O)Cc1ccc(C(=O)N(C)C2CCCCC2)o1 | -11.2 | -3.6 | 5605 | 2.8 | 2.9 | 3.4 | -6.0
Cc1cc(C)c2c(=O)n(CC(=O)NC3CCCC3)sc2n1 | 5.2 | 2.1 | 3792 | 7.2 | 4.3 | 5.3 | -35.4
NC(=O)c1ccc(NC(=O)COC(=O)c2n[nH]c3ccccc23)cc1 | / | 2.1 | ? | -10.0 | -5.4 | 1.6 | -27.0
CCCNC(=O)c1cc2cc([N+](=O)[O-])ccc2s1 | -9.2 | -1.6 | 3285 | 1.3 | 3.4 | 4.0 | -15.8
O=[N+]([O-])c1ccc(NC(=S)N2CCN(c3ccc(F)cc3)CC2)cc1 | 1.1 | -7.6 | 2931 | 3.3 | 1.4 | -15.0 | -7.3
COc1ccc(OC)c(CN2CCCC(C(=O)c3sccc3C)C2)c1 (stereo unspecified) | 1.3 | 7.4 | 6119 | -0.1 | -2.2 | 1.8 | -22.7
COc1ccc(C(=O)O)cc1NC(=S)NC(=O)CSc1ccc(Cl)cc1 | 1.0 | / | 5676 | / | / | / | -9.1
C=CCNC(=O)ON=Cc1csc([N+](=O)[O-])c1 | / | -5.8 | / | -10.0 | 10.4 | 5.5 | /
CCOC(=O)C=CC(=O)OCC(=O)Nc1ccc(Cl)cn1 | / | 12.6 | / | 5.9 | 13.3 | 9.6 | /
CCCCc1cc(=O)oc2cc(OCC(=O)NCC3CCC(C(=O)O)CC3)ccc12 (stereo unspecified) | -3.8 | 7.9 | 4337 | / | / | 1.2 | -5.6
CC(NC(=O)CNC(=O)c1sc2ccccc2c1Cl)c1ccc(S(N)(=O)=O)cc1 (stereo unspecified) | 0.0 | 0.8 | 5811 | 1.3 | 9.8 | -1.1 | -21.4
O=C(CN1CCC(O)(c2ccccc2)CC1)Nc1ccc2c(c1)OCCO2 | -1.9 | 3.5 | 4088 | 0.4 | 1.5 | 0.3 | -4.3
CC(=O)Nc1ccc(CCc2nc3ccccc3[nH]2)cc1 | -5.6 | -1.8 | / | 7.7 | 4.7 | 0.4 | -6.7
COc1ccc(C(=O)NCc2nnc(SCC(=O)Nc3nnc(C)s3)o2)cc1OC | -3.6 | 11.4 | 4981 | 6.3 | 8.9 | -3.7 | -49.0
CN(CCOc1ccccc1)CC(=O)Nc1cccc(C#N)c1 | 2.0 | 0.3 | 5429 | 14.4 | 4.1 | 2.2 | -9.6
COc1ccccc1CNC(=O)COC(=O)c1cc(C)oc1C | 7.7 | 3.2 | 3150 | 9.3 | 4.6 | 5.4 | -3.7
Cc1cc(=O)n(Cc2ccccc2)c2ccccc12 | -1.0 | -3.1 | 3948 | 13.0 | 4.6 | -1.5 | -10.2
COc1ccccc1N1C(=O)CC(N2CCN(c3ccc(F)cc3)CC2)C1=O (stereo unspecified) | -0.3 | 5.4 | 3063 | 10.9 | 2.3 | 5.4 | -15.6
O=c1oc(CCCO)cc2ccc(C=Cc3cccc([N+](=O)[O-])c3)cc12 | / | -1.2 | / | 1.8 | -0.6 | -0.5 | /
CCOc1ccc2[nH]cc(C(=O)O)c(=O)c2c1 | -2.3 | 0.0 | 9832 | 5.0 | 0.8 | 3.7 | -13.9
COC(=O)c1cc2c(n(Cc3ccccc3)c1=O)CCCC2=O | / | 0.7 | 3898 | -17.6 | -10.5 | 4.4 | -19.3
O=C(NCC1CCCO1)c1nn2c(C(F)(F)F)cc(-c3cccs3)nc2c1Cl (stereo unspecified) | 4.7 | 5.2 | 4344 | -4.3 | -14.6 | 3.5 | -6.1
COc1cc(C=NNC2=NS(=O)(=O)c3ccccc32)ccc1OC(C)=O | / | 8.0 | / | 1.9 | 3.2 | 1.4 | /
COC(=O)c1ccccc1S(=O)(=O)Nc1ccc(OC)nc1 | 2.4 | -0.2 | 4781 | / | / | 2.6 | -4.4
Cc1ccc(NC(=O)C(=O)NCCCN2CCCC2=O)cc1 | 1.9 | -3.0 | ? | 1.5 | -5.4 | 1.1 | -56.1
NNC(=O)C1c2ccccc2Oc2ccccc21 | -3.8 | 4.8 | 3163 | 14.7 | 14.1 | 8.1 | -16.8
Cc1cc(C)nc(Nc2cc([N+](=O)[O-])ccc2C)n1 | -6.8 | 4.3 | 4097 | -1.5 | -3.1 | 5.5 | -10.9
Cc1ccc(NC(=S)N2CCC(NC(=O)c3ccc(F)cc3)CC2)cc1C | -4.2 | 0.7 | 5809 | -11.7 | -0.9 | -0.5 | 2.2
CCC(C)(C)NC(=O)C(c1ccc(OC)cc1)N(C(=O)CCC(=O)Nc1cc(C)on1)c1ccc(OC)cc1OC (stereo unspecified) | -1.6 | 12.5 | 3854 | 13.0 | 8.6 | 4.8 | -22.2
Cc1ccc(S(=O)(=O)N2CCC(C(=O)N3CCN(Cc4ccccc4)CC3)CC2)cc1 | / | 8.4 | 5633 | / | / | 3.2 | -20.7
O=C(Cn1cnc2ccccc2c1=O)NCCC(=O)Nc1ccc(F)cc1 | -6.7 | 6.4 | 3797 | 0.1 | 0.2 | 1.6 | -9.7
Cc1cc(C)cc(NC2=NC3(CCCCC3)N=C(N)N2)c1 | 11.6 | -4.4 | 4613 | / | / | -0.1 | -14.2
NC(=O)c1cccc(NC(=O)Nc2ccc(Cl)cc2)c1 | -8.9 | 8.2 | 4395 | -1.3 | -3.5 | 2.5 | -25.5
COc1ccccc1N1CCN(/N=C\C(Br)=C\c2ccccc2)CC1 | -5.8 | / | 4504 | / | / | / | -34.3
COc1ccc(NC(=O)CC#N)cc1OC | -0.8 | 9.6 | 4075 | 11.4 | 6.3 | 4.0 | -16.4
CCN(CC(=O)Nc1cccc(C(C)=O)c1)S(=O)(=O)c1ccc(C)cc1 | -1.2 | 6.3 | 2623 | 3.9 | -3.0 | 4.4 | -9.8
CC1CCN(C(=S)c2cn(Cc3ccccc3F)c3ccccc23)CC1 | -28.6 | 33.2 | 4172 | / | / | -5.0 | -27.2
CCc1ccc(CN2CCC(CO)(CC3CCCCO3)CC2)o1 (stereo unspecified) | 4.8 | 5.8 | 4338 | 15.7 | 13.3 | 6.1 | -11.0
COc1ccc(CN(Cc2ccccn2)S(=O)(=O)c2ccc(-n3cnnn3)cc2)cc1 | 6.1 | 5.1 | 4758 | 3.6 | 12.2 | 11.4 | -17.0
COc1ccccc1CN1C[C@@H]2C[C@@H](c3ccc4nsnc4c3)N3CCC[C@@]23C1=O | 1.7 | / | 3451 | / | / | / | -25.2
Cc1ccc([N+](=O)[O-])cc1NC(=S)NC(=O)c1c(Cl)cnn1C | -9.0 | -2.5 | 5642 | -1.3 | 2.0 | -2.7 | -2.1
O=C(CCn1c2c(c3ccccc31)CCCC2)NNC(=O)c1ccc([N+](=O)[O-])cc1 | -6.0 | -9.4 | 2636 | 6.5 | 9.6 | -0.5 | -13.6
CC1(C)C(=O)OC(C(=O)c2ccccc2)C2(CCCCC2)C1=O (stereo unspecified) | 2.1 | -0.5 | 2634 | 8.2 | 7.8 | 6.7 | -12.0
O=C(Nc1cc(F)ccc1F)C1CCCN1S(=O)(=O)c1cccc2nsnc12 (stereo unspecified) | -6.6 | -0.7 | 4949 | 0.8 | -0.4 | 0.4 | -11.4
O=C(Nc1cccnc1)c1c(F)c(F)c(F)c(F)c1F | 3.1 | -7.8 | 10578 | 4.1 | 2.6 | -0.2 | -10.5
CC(=O)c1ccc(Oc2cc(C)nc(N3CCOCC3)n2)cc1 | -0.5 | / | 2168 | / | / | / | -31.4
O=C1/C(=C/c2ccc(Cl)cc2)SC(=S)N1CCC(=O)N1CCCCC1CCO (stereo unspecified) | 4.8 | 4.8 | 6275 | 10.9 | 6.6 | -1.0 | -25.5
COc1cc(C2C(C#N)=C(N)Oc3cc(N(C)C)ccc32)cc2c1OCO2 (stereo unspecified) | 45.7 | 8.9 | 7806 | -10.6 | -8.2 | 0.9 | -1.6
CN1CCN(C(=O)C2=C[C@@H](c3csc4ccccc34)C[C@@H](OCCCCO)O2)CC1 | 4.5 | / | 2791 | / | / | / | -4.5
COc1cc(/C=C(\NC(=O)c2cc(OC)c(OC)c(OC)c2)C(=O)NC(C(=O)O)c2ccccc2)cc(OC)c1OC (stereo unspecified) | -4.3 | 5.3 | 5753 | 2.0 | 6.9 | 0.1 | 0.5
CN(C)/C=C/C(=O)c1ccc(Cl)cc1 | -3.1 | 2.2 | ? | 2.6 | -3.1 | -1.3 | -27.5
Cc1ccc(S(=O)(=O)c2cc3ccccc3oc2=Nc2ccc3c(c2)OCO3)cc1 | -4.5 | -4.5 | 3671 | -6.0 | -10.8 | 3.7 | -7.1
CCOc1ccc(/C=N/N2C(C)CCCC2C)cc1OC (stereo unspecified) | 7.5 | / | 4254 | / | / | / | -19.9
C=CCSc1nc(C)c(CCC(C)C)c(=O)[nH]1 | -0.7 | -0.3 | 4001 | -3.6 | -2.5 | 0.1 | -7.4
O=C1c2ccccc2-c2onc3ccc(Oc4ccccc4)c1c23 | 6.7 | 27.9 | 10123 | 18.5 | 10.6 | 2.1 | -12.6
O=C(NC12CC3CC(CC(C3)C1)C2)c1ccc(S(=O)(=O)N2CCOCC2)cc1 | 3.6 | -1.1 | 2394 | / | / | 2.7 | -5.7
CCOC(=O)COn1c(=O)c(=O)n(O)c2ccccc21 | -3.1 | 4.9 | 5193 | / | / | -1.4 | -3.5
COc1ccc(CCN(/C=C2\Sc3ccccc3C2=O)C(C)=O)cc1OC | 2.7 | -3.7 | / | -2.5 | -2.6 | 0.8 | /

A draw from above in order of molecular weight, largest number first:
Structure | BJeLR lethal | Sa ugtP lethal | Bead autofluor | Mtb hypoxia inh | Mtb hypoxia inh growth | Sa RN4220 lethal | PrP 5UTR inh
COc1ccccc1CN1C[C@@H]2C[C@@H](c3ccc4nsnc4c3)N3CCC[C@@]23C1=O | 1.7 | / | 3451 | / | / | / | -25.2
O=C(NC12CC3CC(CC(C3)C1)C2)c1ccc(S(=O)(=O)N2CCOCC2)cc1 | 3.6 | -1.1 | 2394 | / | / | 2.7 | -5.7
CC1(C)C(=O)OC(C(=O)c2ccccc2)C2(CCCCC2)C1=O (stereo unspecified) | 2.1 | -0.5 | 2634 | 8.2 | 7.8 | 6.7 | -12.0

The list continues.
Structure | BJeLR lethal | Sa ugtP lethal | Bead autofluor | Mtb hypoxia inh | Mtb hypoxia inh growth | Sa RN4220 lethal | PrP 5UTR inh
COc1ccc2c(c1)c(C(=O)NN=Cc1ccc(Br)cc1)c(C)n2C | / | 5.2 | / | 6.7 | 13.0 | 2.0 | /
O=C(COc1ccc2ccccc2c1)Nc1ccc2c3c(cccc13)CC2 | -0.3 | 20.8 | 2096 | 9.7 | 6.5 | 3.5 | 9.2
CC(C)CCn1c(=O)[nH]c2ccccc21 | -3.3 | 3.6 | 4563 | 6.4 | 3.4 | 0.8 | 8.7
CC(CC(=O)Nc1ccc2c(c1)OCO2)=NNC(=O)C(c1ccccc1)c1ccccc1 | / | 12.3 | / | 8.0 | 4.7 | 3.1 | /
COc1cc(C)ccc1OCc1cc(C(=O)N2CCN(C3CCCCC3)CC2)no1 | -13.1 | 13.5 | 4463 | 2.1 | -6.0 | 5.4 | -88.1
CCOc1ccccc1OCC(=O)NCCc1ccc(S(N)(=O)=O)cc1 | -0.3 | 5.1 | 4109 | 8.8 | 2.0 | 2.6 | -16.6
CN(C)c1ccc(/C=C/C(=O)c2cccc(Br)c2)cc1 | 6.1 | 18.7 | 33462* | 7.2 | 2.3 | 3.8 | -28.8
COc1ccc(/C=N/N=C(/N)N[N+](=O)[O-])c(OC)c1 | 5.5 | / | 2842 | / | / | / | -7.2
CCOC(=O)C1=C(C)NC(C)=C(C(=O)OCC)C1c1ccccn1 | -5.0 | -2.2 | 3965&4349 | / | / | 0.0 | -10.5

From PubChem BioAssay
